CHT inh = inhibits the human high affinity choline transporter; CHT-expressing cells, membrane potential dye, choline response; hits give low values; B-score at 10 µM; actives 0.86% (n = 310,000);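 active = B-score over 3 SD under the library average, and starting fluorescence ratio not unusually high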;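 also: choline stimulus applied at its EC90 after an EC20 pre-addition; B-score computed on integrated fluorescence ratio after choline addition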
Target sequence (Q9GZV3 whole entry, looked up): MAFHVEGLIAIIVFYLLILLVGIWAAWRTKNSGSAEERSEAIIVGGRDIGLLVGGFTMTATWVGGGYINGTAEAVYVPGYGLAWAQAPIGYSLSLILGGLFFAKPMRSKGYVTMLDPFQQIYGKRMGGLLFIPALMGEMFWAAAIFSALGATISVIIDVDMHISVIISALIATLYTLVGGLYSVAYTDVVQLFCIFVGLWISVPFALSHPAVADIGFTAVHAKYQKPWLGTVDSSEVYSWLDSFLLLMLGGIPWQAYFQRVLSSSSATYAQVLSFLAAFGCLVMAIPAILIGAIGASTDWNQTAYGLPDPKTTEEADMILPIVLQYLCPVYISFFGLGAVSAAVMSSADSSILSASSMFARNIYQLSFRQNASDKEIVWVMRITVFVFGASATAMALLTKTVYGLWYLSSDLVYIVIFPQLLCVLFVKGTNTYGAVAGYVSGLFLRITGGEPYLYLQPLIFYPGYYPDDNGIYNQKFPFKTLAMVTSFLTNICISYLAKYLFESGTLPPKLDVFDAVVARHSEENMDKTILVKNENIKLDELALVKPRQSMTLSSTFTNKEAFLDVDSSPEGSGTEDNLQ
Calls only; i = inactive. Not all compounds are listed, and most or all hits are left out here.

SMILES,CHT inh
O=C(COC(=O)c1ccco1)c1ccc2ccccc2c1,i
CCCCOc1ccc(-c2nnn(CCC(=O)N3CCOCC3)n2)cc1,i
O=C(NN1C(=O)/C(=C/c2cccs2)SC1=S)c1ccccc1,i
CC(C)CCNC(=O)C12CN(Cc3ccccc3)CC1C(c1cccc([N+](=O)[O-])c1)=NO2 (stereo not given),i
O=C(Nc1c(Cl)cccc1Cl)c1ccc(-c2ccccc2)cc1,i
CCOc1ccc(N(CC(=O)Nc2ccc(Br)cc2)S(C)(=O)=O)cc1,i
COc1ccc(N2C(=O)C(CC(N)=O)N(NC(=O)c3cccc(OC)c3)C2=S)cc1 (stereo not given),i
CCOc1ccc(NS(=O)(=O)c2ccc3c(c2)N(C(C)=O)CCS3)cc1,i
Cc1cc(=O)n2nc(N3CCCC(C(=O)NCc4ccc(F)cc4)C3)sc2n1 (stereo not given),i
COc1cccc(-c2cc(C(=O)NCCN3CCOCC3)no2)c1,i
CC(NC(=O)C1CC=CCC1C(=O)O)C1CC2CCC1C2 (stereo not given),i
Cc1csc(NC(=O)c2ccco2)c1C(=O)c1ccccc1,i
CC(=O)OCC(=O)Nc1c(C)cccc1C,i
C=CCOc1ccccc1/C=N/NC(=O)Cc1ccc(C)cc1,i
CN1C(=O)c2cccc(N(C)C)c2C1=O,i
O=C(Nc1ccccc1N1CCN(C(=O)c2ccc(Cl)cc2)CC1)c1cc2ccccc2o1,i
O=C(Cn1c(=O)oc2ccccc21)Nc1nc(-c2ccc(Br)cc2)cs1,i
CC(C)(C)C(=O)Nc1ccc(-c2cnco2)cc1,i
C/C(=N\NC(=O)c1cc(-c2ccc(Cl)s2)[nH]n1)c1ccncc1,i
CCOc1ccc2nc(NC(=O)c3cccnc3)sc2c1,i

Next results
SMILES,CHT inh
CC(C)CN(C(=O)CN(C)C(=O)Cc1ccccc1Cl)c1c(N)n(CC(C)C)c(=O)[nH]c1=O,i
COc1cccc(C(=O)N2CCN(C(=O)c3ccc(-c4ccccc4)cc3)CC2)c1OC,i
O=C(O)c1ccc[nH]c1=S,i
C#CC1(O)CC(C)NCC1(C)CCC#N (stereo not given),i
S=C(NCCCn1ccnc1)Nc1ccc(Cl)cc1Cl,i
CC(=O)N1CCN(Cc2ccc(Br)s2)CC1,i
COc1ccc(/C=C/C(=O)c2ccccc2)c(OC)c1,i
COc1cc(NC(=S)NC2CC2)c(OC)cc1Cl,i
COc1cccc(OCC(O)CNC(=O)c2oc3ccc(C)cc3c2C)c1 (stereo not given),i
COCCNC(=S)N1CCN(S(=O)(=O)c2ccc(Cl)s2)CC1,i
O=C(COC(=O)CNC(=O)c1ccccc1F)Nc1ccc2[nH]c(=O)[nH]c2c1,i
CCNc1nc(NCC)nc(N/N=C/c2cc(OC)c(OC)c(OC)c2)n1,i
CC(C)c1onc(C(=O)NCc2ccccc2)c1[N+](=O)[O-],i
Cc1cccc(C(C)C)c1NS(=O)(=O)c1cn(C)nc1C,i
CCCCCCC12CCC(C(=O)O)(CC1)CC2,i
NC1=NC(=O)/C(=C\c2cccs2)S1,i
Cc1c(NC2=CC(=O)CC(C)(C)C2)c(=O)n(-c2ccccc2)n1C,i
O=C1Nc2ccccc2C12OC1CCCCC1O2 (stereo not given),i
COc1cc(-c2noc(C)c2/C=C/c2ccc(C(=O)O)cc2)cc(OC)c1OC,i
COc1ccc(S(=O)(=O)NC2CCCCC2)cc1F,i

Additional structures.
SMILES,CHT inh
CCCC(=O)Nc1ccc(C(=O)Nc2cccc(OC)c2)cc1,i
COc1ccccc1CCNC(=O)Cn1ccc2cc(S(=O)(=O)N3CCCC3)ccc21,i
CCOC(=O)C1=C(C)N=c2s/c(=C\c3ccc(OCC(=O)O)cc3)c(=O)n2C1c1ccc(OC(C)C)cc1 (stereo not given),i
CCc1ccc(NC(=O)COc2ccc(/C=C(/C#N)c3nc4ccccc4[nH]3)cc2OC)cc1,i
CC(C)[C@H]1COCCS(=O)(=O)N1Cc1ccccc1,i
COC(=O)c1ccc(-c2ccc([C@H]3[C@H]4C=CC[C@@H](C)[C@@H]4C(=O)N3Cc3ccccc3)c(F)c2)cc1,i
COc1ccc(/C=C(/NC(=O)c2ccc([N+](=O)[O-])cc2)C(=O)NCCCN(C)C)cc1,i
C=CCN1C(=NC(=O)CCC(=O)O)SC2CS(=O)(=O)CC21 (stereo not given),i
O=C(NCCN1CCOCC1)C1CC(=O)N(c2ccc(F)c(Cl)c2)C1 (stereo not given),i
COCCNC(=O)c1ccc(N2CC3CC(C2)c2cccc(=O)n2C3)c(NC(=O)c2ccc(F)cc2)c1 (stereo not given),i
CC(=O)c1sc(NC(=O)c2cccs2)nc1C,i
CC(C)(C)C(C(Oc1ccc(Cl)cc1)n1cncn1)n1nnnc1C(c1cccc(Cl)c1)N1CCCCC1 (stereo not given),i
CC(=O)N1CCN(CC(=O)Nc2sccc2C#N)CC1,i
O=C(O)C1CSC(c2ccco2)N1 (stereo not given),i
CC(C)c1ccccc1NC(=S)NCc1ccccc1F,i
CN(CC(=O)N1CCN(c2ccc(F)cc2)CC1)S(=O)(=O)c1ccc2c(c1)c(=O)n(C)c(=O)n2C,i
Cc1ccc(Cn2nnc3c(=O)n(CC(=O)NCC4CCCO4)cnc32)cc1 (stereo not given),i
Cc1cc(C)nc(NS(=O)(=O)c2ccc(NC(=O)NC3CCCCC3)cc2)n1,i
COc1ccccc1OCCn1c(=O)sc2ccccc21,i
CCCCCn1c(=O)[nH]c2c(c1=O)CCC2,i

Of the compounds above, 6 have an NH in an aromatic ring:
SMILES,CHT inh
C/C(=N\NC(=O)c1cc(-c2ccc(Cl)s2)[nH]n1)c1ccncc1,i
CC(C)CN(C(=O)CN(C)C(=O)Cc1ccccc1Cl)c1c(N)n(CC(C)C)c(=O)[nH]c1=O,i
O=C(O)c1ccc[nH]c1=S,i
O=C(COC(=O)CNC(=O)c1ccccc1F)Nc1ccc2[nH]c(=O)[nH]c2c1,i
CCc1ccc(NC(=O)COc2ccc(/C=C(/C#N)c3nc4ccccc4[nH]3)cc2OC)cc1,i
CCCCCn1c(=O)[nH]c2c(c1=O)CCC2,i

Remaining list, next part:
SMILES,CHT inh
C#CCOCCOCCOCCNc1nc(N2CCN(C(=O)[C@H]([C@@H](C)CC)n3cc([C@@H](N)CO)nn3)CC2)nc(N2CCN(C(=O)[C@H]([C@@H](C)CC)n3cc([C@@H](N)Cc4ccc(O)cc4)nn3)CC2)n1,i
COc1ccc(NC(=O)CNC(=O)Cn2c(C)cc3ccccc3c2=O)c(OC)c1,i
O=C(Nc1ccccc1)c1ccc(F)cc1F,i
C#CCOCCOCCOCCNc1nc(N2CCN(C(=O)C([C@@H](C)CC)n3cc(C(N)COC(=O)C(F)(F)F)nn3)CC2)nc(N2CCN(C(=O)[C@H](CCCCN)n3cc(C(N)CC(C)C)nn3)CC2)n1 (stereo not given in full),i
O=C(Cn1cnc2c(cnn2-c2ccccc2)c1=O)c1ccc(Cl)cc1,i
CCCCC(=O)Nc1ccc(C(=O)NCCc2ccc(S(N)(=O)=O)cc2)cc1,i
CCC(C(=O)OCC(=O)Nc1cc(C)ccc1OC)c1ccccc1 (stereo not given),i
Cc1cc(C(=O)NC2=NCCS2)cs1,i
COc1ccccc1NC(=O)CCC(=O)Nc1nnc(C(F)(F)F)s1,i
COc1cccc(CC2(CO)CCN(Cc3cnc(-c4cccc(C)c4)nc3)CC2)c1,i
O=C(NCCCNC(=O)c1cnccn1)c1ccc(Cl)cc1,i
CS(=O)(=O)c1ccc2nc(NC(=O)C3CC(=O)N(c4ccccc4)C3)sc2c1 (stereo not given),i
CCC(=O)NN1CCN(c2ccncc2S(=O)(=O)N2CCCCC2)CC1,i
C[C@@H]1CC=C[C@H]2[C@H]1C(=O)N(Cc1ccccc1)[C@H]2c1ccc(-c2cc3ccccc3s2)cc1F,i
CCOc1ccc(NC2C=CS(=O)(=O)C2)cc1 (stereo not given),i
CC(C)NC(=S)NC1(C)CCS(=O)(=O)C1 (stereo not given),i
O=C(NC(=S)Nc1nc2c(ccc3ccccc32)s1)c1cccs1,i
CC(=O)Cn1c(C(F)(F)F)nc2ccccc21,i
CCOC(=O)c1c(NC(=O)CSc2nc3c(c(=O)n(C)c(=O)n3C)n2C(C)C)sc(C)c1C,i
CCCC(=O)Nc1nn(CCC)c2nc3ccccc3cc12,i

Other entries follow.
SMILES,CHT inh
COc1ccc(S(=O)(=O)N2CCCC(C(=O)N3CCOCC3)C2)cc1C (stereo not given),i
O=C(Cn1ccn(-c2ccc(F)c(Cl)c2)c(=O)c1=O)NCCc1ccccc1,i
Cc1ccc(C)c(NC(=O)CCN2CCCC(C)C2)c1 (stereo not given),i
C(=N\Nc1nc(Nc2ccccc2)nc(Nc2ccccc2)n1)/c1ccncc1,i
CCc1cc(=O)[nH]c(SCCC(F)=C(F)F)n1,i
O=C(CCCCn1c(=O)c2ccccc2n(CC(=O)Nc2cccc(F)c2)c1=O)NCc1ccco1,i
O=C(Nc1ccccc1C(=O)N1CCOCC1)c1cccnc1,i
COc1ccc(NC(=O)CN(C)C(=O)CN2C(=O)c3ccc([N+](=O)[O-])cc3C2=O)cc1,i
CCOc1ccc(C(=O)NCC(=O)OCc2c(C)noc2C)cc1OCC,i
COc1ccc(OC)c(S(=O)(=O)Nc2ccc3oc(C)c(C(C)=O)c3c2)c1,i
CCN(CC)c1ccc(C(=O)OCC(=O)Nc2cc3oc4ccccc4c3cc2OC)cc1,i
O=C1CS/C(=N/N=C/c2ccc(OS(=O)(=O)c3ccccc3)cc2)N1,i
COc1ccc(NC(=O)CSCC(=O)Nc2ccc(C)c(S(=O)(=O)N3CCCCCC3)c2)cc1,i
COc1ccccc1CN1CCN(Cc2ccc3ccccc3c2)CC1,i
CC(NC(=O)c1cc(Br)ccc1Br)c1ccccc1 (stereo not given),i
CNC(=O)COC(=O)c1ccc([N+](=O)[O-])cc1Cl,i
NC(=O)c1ccccc1NC(=O)COC(=O)C1(c2ccccc2)CC1,i
CCOC(=O)c1csc(NC(=O)COc2ccc(Cl)cc2Cl)n1,i
N#CCCn1c(SCC(=O)NCCc2ccc(F)cc2)nc2ccccc21,i
CC(C)(C)NC(=O)CN1CCC(NC(=O)C23CC4CC(CC(C4)C2)C3)CC1,i

3 consecutive entries out of the list so far:
SMILES,CHT inh
CCOC(=O)c1csc(NC(=O)COc2ccc(Cl)cc2Cl)n1,i
N#CCCn1c(SCC(=O)NCCc2ccc(F)cc2)nc2ccccc21,i
CC(C)(C)NC(=O)CN1CCC(NC(=O)C23CC4CC(CC(C4)C2)C3)CC1,i

Next part
SMILES,CHT inh
CCOc1cc(/C=C2\C(=N)N3N=C(N4CCCCC4)SC3=NC2=O)ccc1OC(=O)c1ccco1,i
Cc1ccc(C(=O)N2CCC3(CC2)Oc2ccc(F)cc2C(=O)C32CC(c3ccccc3)=NO2)s1 (stereo not given),i
Cc1onc(-c2ccccc2Cl)c1C(=O)N1CCN(C(=O)c2ccco2)CC1,i
CCOC(=O)c1sc(NC(=O)c2ccc(=O)[nH]c2)nc1C,i
CC1(C)CC(=O)C=C(Nc2ccc([N+](=O)[O-])cc2)C1,i
CCOc1cccc(C(=O)Nc2cccc(-c3nc4ncccc4o3)c2C)c1,i
COc1ccccc1CC(=O)Nc1ccc(NC(=O)c2cccs2)cc1,i
CCOc1ccc(C(=O)O)cc1OC,i
Cc1cc(C)n(-c2ccc(C(=O)NC3CCCCC3)cc2)n1,i
Cc1nnc(SCC2=C(C(=O)O)N3C(=O)C(NC(=O)c4cccc(F)c4F)C3SC2)s1 (stereo not given),i
CCOC(=O)c1ccc(NC(=S)N(CCCN2CCN(CC)CC2)Cc2ccco2)cc1,i
CCOc1ccc(C(C(=O)NC2CCCCC2)N(CCOC)C(=O)c2snc(C(N)=O)c2N)cc1 (stereo not given),i
COc1ccccc1OCc1nc(C#N)c(NCc2ccco2)o1,i
N#C/C(=C/c1cn(-c2ccccc2)nc1-c1cccc(OCc2ccc(F)cc2)c1)C(=O)NCCCn1ccnc1,i
CC(C)(C)C(=O)COc1ccccc1[N+](=O)[O-],i
N#CCC(=O)N/N=C1\CCCCC1C1CCCCC1 (stereo not given),i
Cc1ccc(NC(=O)CC2S/C(=N/c3nccs3)N(C)C2=O)cc1C (stereo not given),i
O=C(O)c1cc(-c2ccc(Cl)c(Cl)c2)n(-c2ccccc2)n1,i
COc1ccc(N(CC(=O)NCc2ccc3c(c2)OCO3)C(=O)c2csnn2)cc1,i
COc1ccc(N2CC(=O)N(c3ccccc3)C2=S)cc1,i

Next records follow.
SMILES,CHT inh
Nn1c(SCC(=O)Nc2nccs2)nncc1=O,i
COc1ccc(-c2c(C)nn3c(N4CCCCCC4)cc(C)nc23)cc1OC,i
CCOc1ccccc1CNC(=O)C1CCN(C(=O)c2sccc2-n2cccc2)CC1,i
Cc1cc(C)c2nc(Cl)c(C3NC(=O)c4ccccc4N3)cc2c1 (stereo not given),i
COC(=O)Cc1[nH]c(=S)[nH]c1C(=O)OC,i
O=C(/C=C/c1ccccc1)N(Cc1cccc(Cl)c1)C1CCS(=O)(=O)C1 (stereo not given),i
CCc1cc(=O)oc2c(C)c(OC(C)C(=O)N3CC[C@@]4(O)CCCC[C@H]4C3)ccc12 (stereo not given in full),i
CCOC(=O)C1CCN(C(=O)Nc2ccc(OC(F)(F)F)cc2)CC1,i
CC1=C(C(=O)OCc2ccccc2)C(c2ccco2)n2ncnc2N1 (stereo not given),i
COCCNC(=O)CCCn1c(=O)c2cc(OC)c(OC)cc2n(CC(=O)Nc2ccccc2OC)c1=O,i
CC1(C)Oc2ccc(C(=O)N3CCOCC3)cc2N(CC(=O)N2CCOCC2)C1=O,i
COc1ccc(-n2nc(C(=O)NCC(=O)NC3CCCCC3)c3ccccc3c2=O)cc1,i
